Screening data (PubChem BioAssay)
FGF22 binding – binders of recombinant human FGF22 by thermal shift | 340,000 tested, 1.5% active | AID 651658 | calls only at 9.99 µM | SYPRO orange fluorescence; percent of sucrose octasulfate shift, DMSO zero | Q9HCT0;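 active means melting point raised past a set limit in the mean and every replicate; three in four hits are not shown here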
Ecoli rRNA inh – inhibits bacterial ribosomal RNA function over humanized ribosomes; GFP signal change (wild-type ribosome), % (no concentration beside the values); 350,000 tested, 1.6% active; E. coli WT GFP vs humanized-ribosome RFP mutants, fluorescence, 24 h; hits give low values; DMSO median 0, no signal -100;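 active means significant combined selectivity score with lowered wild-type GFP, culture density cut under 30%, mutant RFP and density less affected; inactive means any of these conditions unmet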; further: one replicate is shown; some compounds called inactive have numbers as strong as hits
Beta2AR agonist – activates human beta-2 adrenergic receptor causing internalization; response, % (no concentration beside the values); P07550; Am2.2-beta2AR cells, FAP receptor internalization, flow cytometry; reference of the scale not given here; AID 504454; 340,000 tested, 0.43% active;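 active means response above a set limit, near 3 SD of response in nonfluorescent compounds, cut at about 42% in these data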;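 further: stock transfer was 100 nL into about 11 µL; a reference agonist was the positive control; negative values mostly stem from fluorescent compounds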
Target sequence (P07550 whole entry, looked up): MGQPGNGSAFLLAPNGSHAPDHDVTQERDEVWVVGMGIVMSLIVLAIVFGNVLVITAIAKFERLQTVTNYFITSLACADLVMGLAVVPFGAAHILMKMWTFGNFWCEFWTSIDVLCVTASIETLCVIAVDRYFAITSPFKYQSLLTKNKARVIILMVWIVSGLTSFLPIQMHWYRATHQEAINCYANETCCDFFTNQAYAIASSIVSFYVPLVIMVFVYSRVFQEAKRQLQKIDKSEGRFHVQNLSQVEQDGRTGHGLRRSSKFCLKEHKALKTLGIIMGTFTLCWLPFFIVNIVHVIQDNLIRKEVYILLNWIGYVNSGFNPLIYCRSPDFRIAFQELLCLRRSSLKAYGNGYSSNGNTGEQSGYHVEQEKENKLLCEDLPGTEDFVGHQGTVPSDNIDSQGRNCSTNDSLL
ALR H2O2 inh – human ALR oxidase inhibition via reduced H2O2; P55789; purified ALR, DTT oxidation, H2O2 HRP-luminol luminescence; inhibition, % (concentration not given with the values); 290,000 tested, 3.8% active; AID 485317;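 active means mean and each replicate at 75% or more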;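 further: stock transfer was 7.5 nL into about 7.5 µL; 0% = neutral wells and 100% = wells with inactivated enzyme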
Target sequence (P55789 whole entry, looked up): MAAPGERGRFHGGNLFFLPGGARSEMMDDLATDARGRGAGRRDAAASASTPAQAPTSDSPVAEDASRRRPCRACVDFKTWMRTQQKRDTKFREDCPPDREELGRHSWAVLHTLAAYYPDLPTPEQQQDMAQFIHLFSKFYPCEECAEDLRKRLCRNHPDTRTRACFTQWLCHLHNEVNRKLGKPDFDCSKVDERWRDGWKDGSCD
UCH37 DUB inh – human UCH37 deubiquitinating enzyme inhibition; Q9Y5K5; purified proteasome/UCH37, Ub-AMC cleavage fluorescence; inhibition, % (concentration not given with the values); AID 588478; 330,000 tested, 0.33% active;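 active means mean of two replicates above 20%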;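 further: 0% = compound-free wells with enzyme and 100% = wells lacking proteasome; stock transfer was 100 nL into about 20 µL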
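Schedule: 30 min plus 25 min, room temperature / Material: human UCH37 within purified proteasomes / Technique: AMC fluorescence intensity at 355/460 nm / Buffer or medium: pH 7.4 Tris-HCl (50 mM) with ovalbumin, ATP-MgCl2, DTT / Controls: wells without proteasome as full block, compound-free enzyme plus substrate as uninhibited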
Ecoli growth – blocks Escherichia coli growth; OD600, 23 h; hits give low values; OD600 absorbance (no concentration beside the values); 330,000 tested, 0.21% active; AID 1053175;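 active means OD600 absorbance below the run mean of sample wells minus 3.6 SD, in any replicate, cut at about 0.56 in these data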;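 further: stock transfer was 300 nL into about 60 µL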
HNF4A DNA FP – change in binding of human HNF4 alpha to DNA. P41235. HNF4a-FITC DNA binding, fluorescence polarization, 1 h. activity change, % at 10 µM. 360,000 tested, 0.3% active; in the data active means activity change above about 30%, passing the limit was not always enough;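 further: controls were the assay level and a saturating level of protein; the project sought stronger binding though the title names inhibitors; some compounds called inactive have numbers as strong as hits; positive values seem to mean higher polarization but the record does not say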
Target sequence (P41235 whole entry, looked up): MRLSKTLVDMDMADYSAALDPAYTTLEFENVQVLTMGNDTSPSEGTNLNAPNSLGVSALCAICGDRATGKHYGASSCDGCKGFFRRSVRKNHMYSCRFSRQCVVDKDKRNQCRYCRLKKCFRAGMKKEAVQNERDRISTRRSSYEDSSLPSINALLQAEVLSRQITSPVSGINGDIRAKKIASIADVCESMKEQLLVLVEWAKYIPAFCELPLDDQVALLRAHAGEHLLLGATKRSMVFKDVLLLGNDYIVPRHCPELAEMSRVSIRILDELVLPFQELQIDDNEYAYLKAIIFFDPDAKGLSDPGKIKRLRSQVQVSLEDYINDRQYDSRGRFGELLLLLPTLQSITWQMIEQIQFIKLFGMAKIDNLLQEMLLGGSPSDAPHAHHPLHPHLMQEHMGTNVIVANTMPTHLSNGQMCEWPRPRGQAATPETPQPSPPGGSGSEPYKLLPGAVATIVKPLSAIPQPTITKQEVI
Ecoli rRNA inh OD600 – second read-out of Ecoli rRNA inh, no call of its own (marks repeat the call); OD600 change, %; measured here: OD600 growth;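 optical density of the mix in the first replicate; 0 = DMSO median and -100 = no signal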
Ecoli rRNA inh RFP – recorded beside Ecoli rRNA inh, whose call it bears; RFP signal change, %; measured here: RFP humanized mutant strains;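 first replicate; 0 = DMSO median and -100 = no signal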
* marks the source's active call; other numbers are inactive results; i = inactive; · = no result given; & = joins results of further samples. These rows are one share of the data; the hit share may differ from the screen's.

SMILES	FGF22 binding	Ecoli rRNA inh	Ecoli rRNA inh OD600	Ecoli rRNA inh RFP	Beta2AR agonist	ALR H2O2 inh	UCH37 DUB inh	Ecoli growth	HNF4A DNA FP
COc1ccc([N+](=O)[O-])cc1NS(=O)(=O)c1ccc(Cl)c(C(=O)Nc2sc3c(c2C#N)CCCCC3)c1	i	20.4	3.9	11.3	·	-1.9	6.2	0.728	·
CCOc1cc2[nH]c(=O)n(CCC(=O)N3CCN(c4ccccc4OC)CC3)c(=O)c2cc1OCC	·	·	·	·	-12.8	-14.8	0.6	0.709	-5.4
O=[N+]([O-])c1ccc(-c2ccc(/C=N/Nc3nc(N4CCCC4)nc(N4CCCC4)n3)o2)cc1	i	22.8	11.1	-1.8	-25.1	-7.7	·	·	32.8*
O=C(COc1ccc(Cl)cc1Cl)N/N=C/c1cccnc1	i	-2.5	8.4	-1.7	-16.4	-8.3	·	·	-3.0
N#Cc1ccsc1NC(=O)CN1CCN(S(=O)(=O)c2cc(Cl)ccc2Cl)CC1	·	·	·	·	1.6	21.6	-2.7	0.701	3.2
O=C1CCN(Cc2ccccc2)S(=O)(=O)c2c(F)cc(F)cc21	i	-22.3	-20.6	-3.8	2.3	0.5	1.7	0.65	5.4
O=C(O)[C@H](Cc1ccccc1)NC(=O)N1CCC(Cc2ccccc2)CC1	i	0.6	0.0	-0.8	5.0	-6.4	1.9	0.68	-0.9
COc1ccc2nc(Nc3nc(C)c(CCC(C)C)c(=O)[nH]3)nc(C)c2c1	·	·	·	·	-11.7	-6.9	2.3	0.719	4.3
COc1cccc(CN(C)C(=O)CSc2nc3ccccc3[nH]2)c1OC	i	-1.5	-1.3	4.7	-21.3	6.9	0.2	0.684	-0.4
Clc1cccc(CNCCNCc2cccc(Cl)c2)c1	i	-15.8	-42.2	40.2	4.5	-2.2	0.7	0.648	3.1
CCc1sc(C(=O)Nc2nc(C)cs2)cc1C	i	-15.7	-34.0	-2.8	-0.5	·	-0.7	0.633	4.3
CCC(O)(c1ccccc1)C(CN1CCOCC1)c1ccccc1 (stereo not drawn)	i	-1.5	-2.3	1.1	-1.8	3.7	1.6	0.65	-1.7
CSCC[C@H](NC(=O)OC(C)(C)C)C(=O)N/N=C/c1cc2ccc(C)cc2nc1Cl	·	·	·	·	-6.3	28.6	·	·	-0.4
O=C(O)CCCN=C1NC2(CCCC2)Cc2ccccc21	·	·	·	·	-2.2	-3.0	3.0	0.795	-0.3
COc1cccc(CC2(CO)CCCN(Cc3ccc(OC)c(C)c3OC)C2)c1 (stereo not drawn)	i	-5.4	-6.9	6.1	4.7	·	0.8	0.694	4.2
Cc1ccc(C)c(NC(=O)CSc2cccc3cccnc23)c1	·	12.3	10.9	4.0	0.0	-0.4	-52.0	0.642	-0.2
O=Cc1cc([N+](=O)[O-])ccc1N1CCOCC1	i	4.1	1.3	-4.8	1.3	·	9.8	0.695	3.3
COc1ccc(C)c2sc(NC(=O)C3CC3)nc12	i	-17.6	-40.4	-12.0	-6.5	2.3	1.2	0.708	0.9
O=C(Cn1c(=O)oc2ccccc21)Nc1nnc(N2CCCCCC2)s1	i	5.0	5.8	-1.3	-5.4	-14.9	3.6	0.725	-0.4
COc1ccc(C(=O)O/N=C(\N)c2ccc(OC)c(OC)c2)cc1	i	-3.6	0.1	-3.1	-7.6	-6.2	3.3	0.682	0.6
CCCc1nc2nc(C)c(NS(=O)(=O)c3ccc4c(c3)CCCC4)c(=O)n2[nH]1	i	-4.4	-0.8	-0.1	2.3	18.9	1.5	0.693	0.8
O=C1CC(c2ccco2)Sc2nc3ccccc3n21 (stereo not drawn)	·	·	·	·	10.5	54.9	1.5	0.676	-3.6
Cc1cccn2c(=O)c3cc(S(=O)(=O)c4ccccc4)c(=N)n(Cc4cccnc4)c3nc12	i	-7.0	-0.4	-3.7	5.5	0.0	-24.2	0.716	0.8
O=C(O)CC(NC(=O)Cc1ccc([N+](=O)[O-])cc1)c1ccc2c(c1)OCO2 (stereo not drawn)	i	30.9	23.3	0.6	-8.3	-18.2	4.2	0.691	3.5
Cc1ccc(C(=O)CSc2nc3ccccc3c(=O)[nH]2)cc1	·	·	·	·	6.5	-0.3	1.5	0.776	5.9
O=C(NCC1CCCO1)c1cccc(Oc2ccc([N+](=O)[O-])cc2Cl)c1 (stereo not drawn)	i	2.7	-2.5	-0.9	-14.8	-4.4	0.9	0.69	1.9
COc1ccc(NC(=O)N2CCN(S(C)(=O)=O)CC2)cc1OC	·	·	·	·	2.8	-15.8	1.9	0.711	-1.3
CCOC(=O)c1c(NC(=O)COc2cccc3c2CCN(Cc2ccc(F)cc2)C3=O)sc2c1CCC2	·	·	·	·	·	0.7	-6.2	0.703	·
c1ccc(-c2nnc3sc(-c4cc5ccccc5o4)nn23)cc1	·	·	·	·	-12.8	-7.6	-11.7	0.708	3.4
CCOC(=O)[C@H]1[C@H]2COc3ccccc3[C@@H]2N2C(=O)c3c(C)cc(C)cc3NC(=O)[C@@]12C	i	-8.4	-17.4	-1.7	9.8	·	6.4	·	-1.2
CCCCn1nnc(NC(=S)NC(=O)c2ccc(OCC)c([N+](=O)[O-])c2)n1	i	-17.5	-11.3	3.1	-11.4	11.0	0.6	0.688	-1.0
NC(=O)COc1ncn(-c2ccccc2)n1	·	8.8	8.8	-2.2	-1.6	-4.0	5.2	0.671	-0.1
CCC1(c2ccccc2)NC(=O)N(CC(=O)Nc2cc(S(=O)(=O)N3CCCCC3)ccc2OC(C)C)C1=O (stereo not drawn)	i	-2.7	-8.1	-1.9	10.5	-0.6	4.8	0.712	-3.5
CCOC(=O)C1=C(COC(=O)COc2ccccc2C(C)C)NC(=O)NC1C (stereo not drawn)	i	-5.3	-2.9	-1.1	-3.9	·	1.1	0.665	-3.7
Nn1c(-c2ccccc2)nc2cc(Cl)ccc2c1=O	i	8.9	5.8	3.0	10.6	-4.2	·	·	-3.5
C=CCNc1n[nH]c(=S)s1	i	6.0	15.5	2.5	·	·	·	·	-2.9
CCCn1c(=O)c2ccccc2n2c(SCCOc3ccccc3F)nnc12	·	·	·	·	-11.6	·	0.1	0.71	1.5
Cc1ccc(S(=O)(=O)N2CCN(C(=O)CSc3nc4ccccc4c(=O)[nH]3)CC2)cc1	·	·	·	·	3.6	-0.7	-0.1	0.703	3.5
C=CCN1C(=O)c2ccc(C(=O)N3CCN(S(=O)(=O)c4cc(C)ccc4C)CC3)cc2C1=O	i	-6.3	-2.0	1.3	-2.6	·	1.0	0.619	-0.2
Cc1ccc(S(=O)(=O)NCc2ccccc2C)cc1	i	-14.2	-27.7	-7.6	0.5	3.0	0.9	0.669	0.3
CC(C)C(=O)n1nc(-c2cccnc2)nc1NCc1ccc(F)cc1	i	-3.3	-12.6	2.9	-5.2	97.3*	1.1	0.706	2.6
COc1ccc(S(=O)(=O)N2CCN(C3CCN(Cc4ccccc4)CC3)CC2)cc1	·	·	·	·	-0.5	0.9	2.1	0.728	2.6
Cc1cccc(N2C(=O)CC(c3ccc(F)cc3)C3=C2COC3=O)c1 (stereo not drawn)	i	1.5	-6.9	1.0	0.9	-8.4	-1.2	0.719	0.1
COC(=O)NN=C1CCC(c2ccccc2)CC1 (stereo not drawn)	i	12.9	14.6	1.7	-3.9	-10.7	-1.7	0.69	0.8
COc1ccc(/C=N\N=C2/SC(CC(=O)O)C(=O)N2c2ccc(O)cc2)cc1 (stereo not drawn)	·	·	·	·	-8.8	-11.3	·	·	1.5
Cc1cccc(N=[N+]([O-])c2cccc(C)n2)n1	i	5.6	13.5	0.3	-4.3	·	4.8	0.718	-0.1
O=C(c1cc(N2CCCCC2)nc2ccccc12)N1CCOCC1	·	·	·	·	-2.0	·	-24.6	0.679	9.1
O=C(NC(=S)Nc1ccccc1Cl)c1cncc(Br)c1	i	4.7	8.1	-0.1	-7.0	·	2.3	0.64	-1.4
Cc1ccc(C(=O)Nc2ccc3c(c2)OCO3)cc1S(=O)(=O)N1CCOCC1	i	-3.9	-1.8	-1.6	7.2	-1.8	0.8	0.708	3.1
COc1ccc(-n2ccc(=O)c(C(=O)O)n2)cc1	i	3.0	6.6	0.3	0.0	0.7	-1.3	0.702	-0.2

2 neighbouring entries already listed, quoted:
SMILES	FGF22 binding	Ecoli rRNA inh	Ecoli rRNA inh OD600	Ecoli rRNA inh RFP	Beta2AR agonist	ALR H2O2 inh	UCH37 DUB inh	Ecoli growth	HNF4A DNA FP
Cc1ccc(C(=O)Nc2ccc3c(c2)OCO3)cc1S(=O)(=O)N1CCOCC1	i	-3.9	-1.8	-1.6	7.2	-1.8	0.8	0.708	3.1
COc1ccc(-n2ccc(=O)c(C(=O)O)n2)cc1	i	3.0	6.6	0.3	0.0	0.7	-1.3	0.702	-0.2

More compounds follow.
SMILES	FGF22 binding	Ecoli rRNA inh	Ecoli rRNA inh OD600	Ecoli rRNA inh RFP	Beta2AR agonist	ALR H2O2 inh	UCH37 DUB inh	Ecoli growth	HNF4A DNA FP
O=C(O)c1cc(S(=O)(=O)Nc2cccc3ccccc23)c(Cl)cc1Cl	i	-5.5	-0.3	2.0	7.0	-15.2	1.5	0.671	-0.5
Cc1ccc([N+](=O)[O-])cc1-c1ccc(/C=N/NC(=O)CN2CCOCC2)o1	i	-1.6	0.6	-4.7	-5.6	·	·	·	-0.5
Cc1occc1C(=O)Nc1sc2c(c1C(N)=O)CCC(C(C)(C)C)C2 (stereo not drawn)	·	5.5	-1.3	-0.2	13.4	-5.7	-113.8	0.69	-1.6
CCCOC(=O)c1cc(-c2ccc(/C=C3/C(=O)N(C)C(=O)C(C#N)=C3C)o2)ccc1Cl	·	·	·	·	11.3	-11.8	-1.5	0.789	3.2
O=C(Nc1ccccc1)c1cc([N+](=O)[O-])ccc1N1CCCCC1	i	-14.8	-28.2	-5.0	14.4	2.8	2.5	0.676	1.0
Cc1cccc(-n2nnc(C(=O)N3CCc4ccccc4C3)c2N)c1	·	·	·	·	-7.4	-0.1	6.1	0.702	-2.7
CC(C)CC1NC(=O)N(CC(=O)Nc2cc([N+](=O)[O-])ccc2F)C1=O (stereo not drawn)	i	·	·	·	3.3	-4.7	0.5	0.665	0.1
Cn1c(CCc2nc3ccccc3[nH]2)nnc1SCC#N	i	10.1	10.9	0.0	3.3	-2.5	3.3	0.699	-3.4
CCCn1nc(C(=O)Nc2cccc(C(=O)OC)c2)c2ccccc2c1=O	·	·	·	·	2.7	-15.9	-0.8	0.677	2.5
CCOC(=O)c1c(NC(=O)c2cccnc2Cl)sc(C(=O)N(C)C)c1C	·	·	·	·	-10.0	-8.6	6.1	0.649	-2.8
CC(C(=O)NCc1ccccc1Cl)N1C(=O)c2ccccc2C1=O (stereo not drawn)	i	2.9	5.3	-1.2	3.5	-6.2	0.9	0.672	-2.1
CNS(=O)(=O)c1ccc(C(C)(C)C)cc1	i	0.2	6.9	4.1	3.3	-2.7	1.2	0.676	-0.2
Cc1ccc2nc(COC(=O)CNC(=O)c3ccccc3)cn2c1	i	-27.6	-40.5	-7.9	1.7	·	1.3	0.652	6.2
CC(=O)C1=C(C)Nc2ncnn2C1c1ccc(F)cc1 (stereo not drawn)	i	5.9	10.5	4.4	-0.4	3.8	1.2	0.717	1.3
COc1cccc(/C=C/C(=O)NNC(=O)c2ccccc2)c1OC	i	1.8	-0.4	-1.0	-2.9	·	2.4	0.707	1.1
COCC(=O)N(C)C[C@H]1Oc2ncc(C#C[C@H](C)O)cc2C(=O)N([C@@H](C)CO)C[C@H]1C	i	14.1&2.9	-10.1&8.0	5.0&-0.7	·	·	·	·	7.6
Cc1ccc(C2C3=C(CCCC3=O)Nc3nc(SCC(=O)NCc4ccco4)[nH]c(=O)c32)cc1 (stereo not drawn)	·	·	·	·	-1.8	6.4	-172.1	0.662	1.1
